# Beta apoptosis – beta cell apoptosis inhibition; INS-1E cytokine-induced death, ATP luminescence, 48 h; percent of positive-control rescue, neutral wells zero; protection from apoptosis, % (concentration not given with the values); 0.8% of 300,000 active;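 active means all replicates at 75% or more, or half of them and the mean; inconclusive means half reach 75% but not the mean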;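 further: 0% = cytokine-treated negative control wells and 100% = positive control rescue; higher means more ATP so stronger rescue from cytokine killing; wells of about 40 µL received 100 nL stock; the first replicate is given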
# RanGTP-Impb inh – disruptors of Ran-importin-beta complex formation – biochemical, FRET, CFP-Ran, YFP-importin-beta, homogeneous, primary screen. cell-free CFP-Ran/YFP-importin-beta FRET ratio. inhibition, % (concentration not given with the values). 1.1% of 300,000 active. AID 2216;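 active means most replicates above 15%; inconclusive means exactly half above 15%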;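 further: 0% = DMSO wells and 100% = Ran loaded with GDP instead of GTP; wells of about 40 µL received 100 nL stock; the first replicate is given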
# Ecoli rRNA inh – selective bacterial rRNA inhibition in E. coli. E. coli WT GFP vs humanized-ribosome RFP mutants, fluorescence, 24 h; stronger effect = lower value; DMSO median 0, no signal -100. GFP signal change (wild-type ribosome), % (test concentration not listed). AID 720706. 1.6% of 350,000 active;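 active means significant combined selectivity score with lowered wild-type GFP, culture density cut under 30%, mutant RFP and density less affected; inactive means any of these conditions unmet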; further: one replicate is shown; some compounds called inactive have numbers as strong as hits
# Calb FLC – affects C. albicans growth with fluconazole; 0.57% of 300,000 active; C. albicans CaCi-2 (fluconazole-resistant clinical isolate) + fluconazole, Alamar Blue growth, 48 h; growth inhibition, % (concentration not given with the values);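 active means most replicates above 75%; inconclusive means exactly half above 75%; inactive means most below 75%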;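 further: all wells also contain fluconazole at 8 µg/ml as a sub-toxic cotreatment; 0% = median of DMSO wells and 100% = median of geldanamycin control wells; wells of about 8 µL received 7.5 nL stock; the first replicate is given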
# T cruzi inh – T. cruzi replication inhibition; T. cruzi beta-gal in NIH3T3, luminescence, 90 h; 1.4% of 300,000 active; inhibition, % (concentration not given with the values);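 active means mean inhibition across valid replicates above about 55%, limit read from the data; inconclusive means mean below that limit but half or more replicates reach it; inactive means mean below it, under half of replicates reach it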;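 further: signal also drops with host cell toxicity which is not excluded here; 0% = plate median of DMSO wells and 100% = zero luminescence signal; higher percent means less beta-gal luminescence so fewer parasites; stock transfer was 50 nL into about 50 µL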
# Bfl-1 A1 inh – inhibitors of the anti-apoptotic protein A1, read as caspase activation; caspase activation, % (test concentration not listed); 0.066% of 330,000 active; MEF A1-2A-BIM cells, Caspase-Glo 3/7 luminescence, 3 h; percent of clofoctol response, vehicle zero;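 active means over half of replicate activation scores above 10%, or exactly half above 10 with the replicate mean above 10; inconclusive means replicate mean below 10 yet half the replicates above 10; inactive means over half of replicates below 10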;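 further: wells of about 30 µL received 50 nL stock; many hits fall short of the cut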
# MLL AF4-AF9 inh – inhibitors of human MLL-AF4/AF9 interaction. AlphaScreen, biotin-AF4 peptide binding to FLAG-AF9. P42568. inhibition, % at 10 µM. AID 651704. 0.47% of 350,000 active;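 active means every replicate reaching a set inhibition limit, whatever the replicate mean, cut at about 25% in these data; inconclusive means mean inhibition reaches that limit but some replicates miss it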;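 further: 0% = plate neutral control median and 100% = total signal loss; the record names both 10 and 1 µM as test concentration; the first replicate is given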
# Target sequence (P42568 whole entry, looked up): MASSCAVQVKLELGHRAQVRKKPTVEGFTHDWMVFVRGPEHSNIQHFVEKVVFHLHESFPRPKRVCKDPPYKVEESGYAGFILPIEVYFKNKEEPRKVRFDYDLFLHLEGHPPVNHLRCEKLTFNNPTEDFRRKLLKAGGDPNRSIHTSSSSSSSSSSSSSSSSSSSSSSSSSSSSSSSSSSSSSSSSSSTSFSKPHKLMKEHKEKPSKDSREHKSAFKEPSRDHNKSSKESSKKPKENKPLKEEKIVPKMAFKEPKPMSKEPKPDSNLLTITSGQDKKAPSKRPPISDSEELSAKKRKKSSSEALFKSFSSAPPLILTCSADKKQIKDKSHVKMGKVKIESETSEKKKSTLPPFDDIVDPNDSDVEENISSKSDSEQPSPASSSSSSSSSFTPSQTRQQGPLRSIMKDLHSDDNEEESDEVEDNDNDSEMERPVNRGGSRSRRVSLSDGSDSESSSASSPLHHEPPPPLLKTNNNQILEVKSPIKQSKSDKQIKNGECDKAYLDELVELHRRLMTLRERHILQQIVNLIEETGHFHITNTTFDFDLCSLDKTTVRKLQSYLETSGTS
# Vif TR-FRET – inhibitors of Vif binding to APOBEC3G peptide, primary screen, biochemical, TR-FRET, GST-Vif 1-94, biotin-A3G peptide, dose response retest (AID 1117319); 0.57% of 260,000 active; TR-FRET GST-Vif / biotin-A3G peptide binding; higher % means a stronger effect; test concentration not given here; strong numbers were not always called active; inhibition, %, or IC50 in µM where a hit was titrated;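 active means above the screen mean plus three standard deviations and confirmed in dose response; inconclusive means results disagree or hit not tested in dose response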;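 further: Vif residues 1-94 fused to GST binding biotinylated APOBEC3G peptide 110-148; 0% = full assay without inhibitor and 100% = GST in place of GST-Vif; retest series ran down from 100 µM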
# Ecoli rRNA inh OD600 – recorded beside Ecoli rRNA inh, whose call it bears; OD600 change, %; measured here: OD600 growth;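 optical density of the mix in the first replicate; 0 = DMSO median and -100 = no signal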
# Ecoli rRNA inh RFP – also measured in Ecoli rRNA inh; calls as there; RFP signal change, %; measured here: RFP humanized mutant strains;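 first replicate; 0 = DMSO median and -100 = no signal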
# * hit, by the source's call; ? = inconclusive; · = not tested or not shown.
structure,Beta apoptosis,RanGTP-Impb inh,Ecoli rRNA inh,Ecoli rRNA inh OD600,Ecoli rRNA inh RFP,Calb FLC,T cruzi inh,Bfl-1 A1 inh,MLL AF4-AF9 inh,Vif TR-FRET
CC(C)(C)C(=O)Nc1ccc(C(=O)CN2C(=O)NC3(CCOc4ccccc43)C2=O)cc1 (stereo unspecified),8,·,·,·,·,·,·,0.1,3.0,4%
C=CCN1C(=O)N(CC=C)c2cccc3cccc1c23,-2,10,-27,-46,-11,7,-18,0.5,5.5,3%
CCNc1nc(NCC)nc(SCCOC(=O)Nc2ccccc2)n1,2,?,·,·,·,1,10,0.3,·,1%
CC(=O)N1CCN(CC(=O)Nc2ccccc2C(=O)Nc2ccccc2)CC1,5,·,6,8,0.3,·,·,1.3,0.3,·
Cc1cc(Cl)ccc1N(CC(=O)NCCSCc1ccco1)S(C)(=O)=O,0,1.7,7,-6,1.6,14,-8,0.7,1.0,23%
CCc1ccn2cc(-c3cc(-c4ccccc4)no3)nc2c1,13,3.0,15,16,4.9,-2,-19,-7.7,·,-3%
O=C(O)CN1CCNCC1,·,2.2,·,·,·,-6,-20,·,·,-8%
Cn1c(CC(=O)NNC(=O)c2cncc(Br)c2)nc2ccccc21,-5,·,-1,-3,-0.3,·,·,0.1,-4.9,·
CCOC(=O)c1ccccc1NC(=O)c1cc2sccc2n1C,-5,2.0,·,·,·,-13,·,-0.2,·,-16%
Cc1ccc(-c2nn(-c3cccc(F)c3)cc2CNCc2cccnc2)o1,-4,6.3,9,16,6.6,4,?,-0.1,6.1,-4%
CCN(CC)c1ccc(CN2CCC(C(=O)NCc3ccc(C)cc3)CC2)cc1,0,2.1,-2,4,4.9,-38,27,0.4,?,25%
CC(C)CC1C(C#N)=C(N)Oc2n[nH]c(-c3ccccc3)c21 (stereo unspecified),-3,-2.1,·,·,·,-13,-4,0.1,·,-3%
Cc1cccc(C(=O)NC2CCN(C(=O)N3CCOCC3)CC2)c1,-1,3.0,·,·,·,25,-9,0.8,·,4%
O=C(O)CSc1nnc(-c2ccc(Cl)cc2Cl)n1Cc1ccccc1,-4,3.9,0,11,-1.3,-4,-31,-1.7,-0.5,·
O=C1C2CCCN2C(c2ccccc2F)N1c1ccc(F)cc1 (stereo unspecified),-2,1.1,·,·,·,-4,-8,0.4,·,-3%
O=C(c1cccc2ccccc12)C1CCCN(C(=O)CCc2cnccn2)C1 (stereo unspecified),-1,1.6,-21*,-14*,5.7*,-3,13,0.4,1.5,-2%
O=C(Nc1nccs1)C(Br)C(Br)c1ccccc1 (stereo unspecified),18,-2.1,9,14,-1.9,7,-1,-8.8,-1.3,-2%
CC(Cc1ccccc1)C(=O)Nc1ccccc1 (stereo unspecified),-1,-1.7,·,·,·,-14,-5,0.6,·,·
O=C(CCc1nnc(-c2ccc3c(c2)OCO3)o1)NCCc1ccccc1F,-5,-1.9,0,-2,1.1,-19,12,0.8,1.2,·
CCn1c(SCC(=O)N(C(C)C)C(C)C)nnc1-c1cc2ccccc2cc1O,8,-0.1,-22,-35,-6.6,19,16,·,·,15%
Cn1cc(C(c2ccccc2OCC(=O)O)c2cn(C)c3ccccc23)c2ccccc21,2,0.1,12,0,17,68,-13,-0.3,4.0,·
Cc1c(CCOC(=O)c2cc([N+](=O)[O-])cc([N+](=O)[O-])c2)sc[n+]1CC(=O)c1ccc(Br)cc1,1,0.8,-15,-1,-3.4,-1,57*,-0.3,11,·
COc1ccc(-c2nc(S(=O)(=O)c3ccccc3)c(NCCCN3CCOCC3)o2)cc1,-9,·,14,13,-1.0,·,·,0.7,6.4,·
COc1ccc(OCCNC(=O)CSc2ccc(C(F)(F)F)cc2[N+](=O)[O-])cc1,-2,?,·,·,·,24,-9,1.5,·,9%
O=C(CCN1C(=O)c2ccccc2C1=O)N1CCN(C(=O)c2ccccc2)CC1,-4,3.3,·,·,·,9,4,-1.5,·,-2%
COc1ccccc1NC(=O)CCS(=O)(=O)c1ccccc1,-2,1.2,19,9,2.0,-8,-6,-0.1,-1.8,·
COCCNC(=S)Nc1cc(OC)c(OC)cc1C#N,·,3.7,19,17,3.5,3,-1,·,-0.9,·
COC(=O)c1ccc(Oc2nc(N3CCCCC3)nc(N3CCOCC3)n2)cc1,-6,-1.4,·,·,·,0,24,-0.1,·,-4%
CC(=O)c1cccc(NC(=O)CSc2nnc(-c3cccnc3)o2)c1,-2,-4.1,·,·,·,3,-7,0.8,·,-2%
C/C(COc1ccccc1)=N\NC(=O)c1nnn(-c2nonc2N)c1CSc1ccccc1,0,0.0,0,-6,1.6,0,-5,0.1,-1.7,·

structure,Beta apoptosis,RanGTP-Impb inh,Ecoli rRNA inh,Ecoli rRNA inh OD600,Ecoli rRNA inh RFP,Calb FLC,T cruzi inh,Bfl-1 A1 inh,MLL AF4-AF9 inh,Vif TR-FRET
CC12CN3CCN(CC(C3)/C1=N/NC(=O)Nc1ccccc1)C2,1,1.9,-6,-5,-1.7,-13,-15,-0.8,0.1,·
COc1ccc(C(=O)Cn2c(NCCO)nc3ccccc32)cc1,-4,-1.0,3,1,-1.2,-25,-22,-0.7,0.2,1%
Cc1nc2ccccc2c(=O)n1Nc1cccc(Cl)c1,-2,2.9,·,·,·,2,3,0.8,·,5%
CCOC(=O)C1CCCN(C(=O)c2cccc(S(=O)(=O)N3CCOCC3)c2)C1 (stereo unspecified),-12,-2.0,-6,-5,-2.7,-15,-8,0.7,-3.0,-4%
COc1ccc(C2CC(=O)C=C(O)C2)cc1 (stereo unspecified),·,2.2,·,·,·,-10,2,-1.8,-5.9,0%
Cc1cc(OC(C)C(=O)Nc2cccnc2)ccc1Cl (stereo unspecified),-3,3.3,-12,-17,-3.2,-9,-2,0.0,-0.1,·
O=C(Nc1cc(Cl)ccc1-n1cncn1)c1cn2ccccc2n1,0,2.4,16,12,1.8,·,-13,-0.6,-0.4,-3%
CCCSCCCNC(=O)c1ccc(NC(=O)C2=CSCCO2)cc1,-4,0.2,-1,7,0.1,2,6,-1.4,-0.3,·
COc1cc(C2NC(=O)NC(C)=C2C(C)=O)cc(OC)c1OC (stereo unspecified),0,-1.0,9,-1,-5.7,6,-9,0.4,-0.2,·
Cn1c(=O)c2c(nc(NCc3ccccc3)n2CC(=O)NCc2ccccc2)n(C)c1=O,8,1.4,·,·,·,22,2,-0.2,·,2%
CC(=O)Nc1ccc(NC(=O)C(C)OC(=O)CCCOc2ccc(Cl)cc2C)cc1 (stereo unspecified),4,?,10,5,0.6,-6,8,-0.3,-0.4,16%
CN(C)C1(CNC(=O)C2CCC(=O)N(Cc3ccc(Cl)cc3)C2)CCCCC1 (stereo unspecified),2,6.2,7,-7,-2.3,22,10,-0.2,1.0,·
Cc1ccccc1NCC(=O)N/N=C/C(Br)=C/c1ccccc1,·,2.6,·,·,·,-5,-12,-0.7,·,4%
COc1ccc(NC(=S)N2CCc3ccccc32)cc1OC,·,-5.9,0,1,2.7,-4,10,2.6,3.8,0%
COc1cccc(CC2(CO)CCCN(Cc3cc4ccccc4[nH]3)C2)c1 (stereo unspecified),-1,4.9,-42,-73,-0.6,-6,67*,-0.7,6.0,14%
O=C(OCC#CCSc1nc2ccccc2s1)c1ccco1,-2,-0.5,·,·,·,9,-4,-2.6,·,3%
O=[N+]([O-])C(=C1Nc2ccccc2N1)C(Cl)=C(Cl)Cl,-17,0.7,6,4,1.6,12,13,0.0,-0.4,·
O=C(O)[C@]1(S(=O)(=O)c2ccccc2)C[C@@H]2ON=C(c3cccc(Br)c3)[C@@H]2C1,·,0.9,-8,5,1.1,2,-15,?,0.7,·
Cc1cccc(N(C(=O)c2csnn2)C(C(=O)NC2CCCC2)c2ccncc2)c1 (stereo unspecified),-3,0.1,5,4,1.3,6,10,0.0,-1.4,·
Cc1cc(O)c(S(=O)(=O)c2ccccc2)c(C)c1NS(=O)(=O)c1ccccc1,-11,?,-50,-78,-21,-19,16,0.0,-2.5,6%
COc1ccc(C(=O)NCC(=O)OCC(=O)NC23CC4CC(CC(C4)C2)C3)cc1,3,·,0,3,4.4,·,·,-0.9,-11,·
COc1cccc(C(=O)NC2CC3CCCC(C2)N3Cc2ccc(C)cc2)c1 (stereo unspecified),1,-2.9,1,-1,8.7,-26,10,-0.1,4.1,·
COc1ccc(NC(=O)c2[nH]c(C)c(C(C)=O)c2C)cc1Cl,-9,-1.0,·,·,·,-2,-7,-1.4,·,0%
COCCN(CC(=O)NCc1ccccc1)C(=O)CCC(=O)Nc1ccccn1,5,-1.1,·,·,·,1,·,0.0,·,-5%
NC(=O)CC(NC(=O)Cc1ccc(Br)cc1)c1ccc(NCC2CC2)c([N+](=O)[O-])c1 (stereo unspecified),-3,-12,16,11,16,1,6,1.2,-2.7,·
Cc1ccc(C(=O)Cn2c(C(=O)/C=C/c3ccccc3)nc3ccccc32)cc1,41,0.8,·,·,·,3,15,-0.1,·,10%
CCOC(=O)[C@H]1[C@H]2COc3cc(OC)ccc3[C@@H]2N2C(=O)c3c(C)cc(C)cc3NC(=O)[C@@]12C,-8,·,-13,-5,-11,·,·,0.5,7.4,·
CC(C)CC(=O)Nc1nnc(-c2ccco2)s1,-6,-3.5,·,·,·,-24,-13,-0.9,·,68µM*
Cc1c(O[C@@H]2O[C@H](CO)[C@@H](O)[C@H](O)[C@H]2O)c(CO)c(O[C@@H]2O[C@H](CO)[C@@H](O)[C@H](O)[C@H]2O)c2c1O[C@@H](c1ccccc1)C[C@@H]2O,-4,·,3,8,4.6,·,·,-0.4,-26,·
CCc1c(C)nc2ncnn2c1N1CCCC(C(=O)NCc2cccs2)C1 (stereo unspecified),5,-1.0,·,·,·,0,12,0.2,-1.5,-12%

structure,Beta apoptosis,RanGTP-Impb inh,Ecoli rRNA inh,Ecoli rRNA inh OD600,Ecoli rRNA inh RFP,Calb FLC,T cruzi inh,Bfl-1 A1 inh,MLL AF4-AF9 inh,Vif TR-FRET
COC(=O)C1=C(C)NC(=O)NC1c1ccsc1 (stereo unspecified),1,-2.1,·,·,·,-14,14,-0.4,·,-1%
CC(C)Oc1ccc(/C(O)=C2/C(=O)C(=O)N(CCN3CCOCC3)C2c2ccccc2)cc1 (stereo unspecified),0,-1.6,·,·,·,5,-6,1.8,·,-3%
CCn1nc(NC(=O)c2cccnc2)c2cc3cccc(C)c3nc21,3,-18,·,·,·,4,4,-1.3,·,-6%
CC#CCN(Cc1ccco1)C(=O)c1ccc(OC2CCN(Cc3ccccn3)CC2)cc1,0,4.2,-1,-1,2.8,2,10,0.2,-1.7,·
Cc1occc1C(=O)n1nnc2ccccc21,-8,3.1,·,·,·,-21,-21,-0.2,·,3%
O=S(=O)(c1ccc(-c2cnc(C3CC3)o2)cc1)N1CCN(c2ccccc2)CC1,8,25,4,-8,-1.0,-4,10,1.5,-2.6,·

# High-throughput results as filed in PubChem BioAssay.

# Not all compounds are listed; rates above refer to the full screens.
